# PABP FP inh – blocks human PABP binding to poly(A) RNA; P11940; fluorescence polarization; inhibition, % at 35 µM; hit rate 1% among 290,000; AID 2014;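 active = 50% or more with normal probe brightness, or confirmed in later tests; about a fifth of its hits are not listed in these tables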;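 also: calls also rest on retests at 20 µM and on dose response follow-up; controls were probe without protein and protein plus probe with vehicle; some compounds called inactive have numbers as strong as hits; many hits fall short of the cut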
# Target sequence (P11940 whole entry, looked up): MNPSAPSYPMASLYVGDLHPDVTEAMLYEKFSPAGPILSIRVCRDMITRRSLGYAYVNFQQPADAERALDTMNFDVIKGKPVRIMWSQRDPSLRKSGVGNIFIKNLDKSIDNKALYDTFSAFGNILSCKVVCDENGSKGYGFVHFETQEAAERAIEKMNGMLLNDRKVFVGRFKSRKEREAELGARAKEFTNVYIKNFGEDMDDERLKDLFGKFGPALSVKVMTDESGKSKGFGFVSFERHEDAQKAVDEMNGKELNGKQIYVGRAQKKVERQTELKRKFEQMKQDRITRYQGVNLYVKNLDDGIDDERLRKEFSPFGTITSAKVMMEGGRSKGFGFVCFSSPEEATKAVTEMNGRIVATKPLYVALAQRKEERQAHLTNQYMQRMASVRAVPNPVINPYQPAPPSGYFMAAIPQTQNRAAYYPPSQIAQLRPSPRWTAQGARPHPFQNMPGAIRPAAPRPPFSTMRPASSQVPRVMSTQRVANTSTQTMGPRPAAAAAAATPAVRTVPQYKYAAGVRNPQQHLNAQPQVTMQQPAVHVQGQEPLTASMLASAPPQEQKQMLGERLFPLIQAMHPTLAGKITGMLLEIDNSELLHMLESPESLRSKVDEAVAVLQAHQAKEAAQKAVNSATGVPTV
# MT1-MMP act inh – blocks activation of human MT1-MMP | P50281 | HT1080 RFP-PRO-GFP cells, GFP/RFP ratio fluorescence, overnight; percent of plate control window, DMSO zero | GFP/RFP ratio change, % at 20 µM | hit rate 0.061% among 360,000;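 active = GFP/RFP ratio change of at least 30% with cell ATP level not reduced by more than half and red fluorescence within 50% of control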; also: strong numbers were not always called active
#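 Assay system: HT1080 RFP-PRO-GFP cells. Benchmarks: DMSO vehicle wells and RFP-L50D-GFP reporter cell wells. Times: overnight cell settling, then overnight compound exposure, 37 °C, 5% CO2. Compound: 20 µM single dose, 1% DMSO. Read-out basis: GFP/RFP fluorescence ratio.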
# eIF4H FP inh – inhibitors of RNA binding by human eIF4H; Q15056; eIF4H fluorescence polarization binding assay; inhibition, % at 35 µM; hit rate 0.94% among 290,000; AID 2012;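 active = 50% or more with normal probe brightness, or confirmed in later tests; about a fifth of its hits are not listed in these tables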;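 also: calls also rest on retests at 20 µM and on dose response follow-up; 0% = protein and probe with vehicle and 100% = probe without protein; strong numbers were not always called active; many hits fall short of the cut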
# Rce1 inhib – yeast Ras-converting enzyme inhibition. yeast membranes, quenched prenylated peptide cleavage fluorescence. calls only. hit rate 0.27% among 290,000. AID 2563;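 active = fall in fluorescence gain of 50% or more versus controls, with final raw signal at or below 3038400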;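 also: plate controls were neutral control wells for no effect and wells lacking membranes for full effect; tested at 10 µM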
# Target sequence (Q03530 whole entry, looked up): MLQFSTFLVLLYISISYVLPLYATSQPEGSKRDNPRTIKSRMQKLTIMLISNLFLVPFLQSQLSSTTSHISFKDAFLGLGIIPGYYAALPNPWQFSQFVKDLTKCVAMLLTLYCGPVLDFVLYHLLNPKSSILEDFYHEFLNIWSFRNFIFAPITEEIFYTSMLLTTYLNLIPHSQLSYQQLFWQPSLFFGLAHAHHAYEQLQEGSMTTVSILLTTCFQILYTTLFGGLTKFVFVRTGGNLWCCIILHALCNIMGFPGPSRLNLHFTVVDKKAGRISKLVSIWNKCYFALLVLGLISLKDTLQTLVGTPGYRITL
# CSC inhib – blocks cancer stem cells; cancer stem cell-like cells viability, luminescence; inhibition, % at 7.5 µM; hit rate 1.1% among 300,000; AID 2717;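 active = mean at 75% or more and at least half the replicates too; tested in HMLE shEcad cells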;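 also: 0% = median of negative and 100% = median of positive control wells; the first replicate is given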
# Yeast UUG start – yeast start codon fidelity modulation | activity score, % at 18.7 µM | S. cerevisiae UUG-firefly luciferase reporter, luminescence/redox ratio | hit rate 0.13% among 350,000 | AID 602363;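 active = replicate mean at a twofold rise or more, about +100% in these data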;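 also: firefly luciferase made from a UUG start codon reports start codon fidelity; reporter light over untreated wells divided by growth signal over untreated wells; some hits fall short of that in this replicate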
# Env fusion inh – blocks HIV Env-driven cell-cell fusion; HeLa-JRFL Env/CEM21 cell fusion, luciferase; hit rate 1.1% among 360,000; inhibition, % at 12.3 µM;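 active = mean replicate inhibition score of at least 50 and every replicate individually at or above 50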;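 also: 0% = plate neutral controls and 100% = maraviroc near 300 nM; one replicate is shown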
# MT1-MMP act inh RFP – second read-out of MT1-MMP act inh, no call of its own (marks repeat the call); RFP signal change, %; measured here: RFP expression control read;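 0 = vehicle wells; hits needed this value within 50% of zero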
# Active calls of the source: *; i = inactive; · = not tested or not shown; & = joins results of further samples.
SMILES,PABP FP inh,MT1-MMP act inh,MT1-MMP act inh RFP,eIF4H FP inh,Rce1 inhib,CSC inhib,Yeast UUG start,Env fusion inh
CC1/C(=N/O)CC(c2ccco2)NC1c1ccco1 (configuration not stated),-8,3,0,10,i,-11,·,9
C[C@@H]1CN([C@@H](C)CO)C(=O)CCCn2cc(nn2)CO[C@H]1CN(C)S(=O)(=O)c1ccc(C#N)cc1,·,1,3,·,·,·,-5&2,20
CC(C)[C@H](NC(=O)c1ccco1)C(=O)NC12CC3CC(CC(C3)C1)C2,3,-1,-1,-1,i,20,·,58*
COc1ccccc1-c1nnc(SC(C(=O)c2c[nH]c3ccccc23)c2ccccc2)n1C (configuration not stated),6,-3,-4,-4,i,34,·,2
COC(=O)C1CCN(C(=O)COC(=O)[C@@H]2CC(O)CN2S(=O)(=O)c2ccc3c(c2)OCCO3)CC1 (some centres not stated),-10,4,9,-15,i,-13,-4,5
CN(CC(=O)Nc1cccc(F)c1)C(=O)c1ccc2c(=O)n3c(nc2c1)CCC3,·,-4,-4,·,i,-9,2,1
CC1=C(C)NC(=S)SC1,9,-3,2,-4,·,-8,-20,·
Cc1c(Cl)cccc1NC(=O)CCC(=O)NNC(=O)CCC(=O)O,11,2,6,-1,i,3,·,3
O=C(c1ccc2nc[nH]c2c1)N1CCN(c2ncc(C(F)(F)F)cc2Cl)CC1,-10,2,-18,-3,i,4,-21,36
O=S(=O)(Nc1nc2ccccc2nc1Cl)c1ccc2c(c1)OCCO2,0,1,1,13,i,-11,·,3
CCCN1C2CCCC1CC(NC(=S)Nc1ccc(OC)cc1)C2 (configuration not stated),7,0,0,-1,i,-5,-20,13
O=C(NCc1ccncc1)C1CCCN(S(=O)(=O)c2ccc(Br)cc2)C1 (configuration not stated),-3,-8,-9,-10,i,-11,-9,17
COC(=O)c1ccc(NC(=O)CNc2ccccc2)cc1,-4,3,2,-12,i,-6,·,-11
CCOc1ccc(C(=O)c2cc([N+](=O)[O-])ccc2Cl)cc1,8,2,1,-2,i,18,-8,·
CCOc1ccc(C(=O)Nc2cccc(C(=O)O)c2C)cc1Cl,4,1,7,-17,i,-7,·,60*
Cc1ccccc1S(=O)Cc1ccc(C(=O)NCCN2CCOCC2)o1 (configuration not stated),0,3,3,4,i,-7,-8,3
O=C1CC(c2ccco2)=Nc2ccccc2N1,18,1,6,9,i,-2,-6,·
CCOC(=O)c1ccccc1NS(=O)(=O)c1ccc(OC)cc1,-14,-6,-15,-8,i,51,-5,49
CCC(CC)NC(=O)c1cc(S(=O)(=O)N2CCCCC2)ccc1N1CCOCC1,·,1,2,·,·,-10,-4,·
CC(C)Nc1ncnc2c1cnn2-c1ccccc1,-8,-1,0,-6,i,6,-2,-102

# Printed as active in Env fusion inh, of those listed so far:
SMILES	MT1-MMP act inh	MT1-MMP act inh RFP	Rce1 inhib	Yeast UUG start	Env fusion inh
CC(C)[C@H](NC(=O)c1ccco1)C(=O)NC12CC3CC(CC(C3)C1)C2	-1	-1	i	·	58*
CCOc1ccc(C(=O)Nc2cccc(C(=O)O)c2C)cc1Cl	1	7	i	·	60*

# Carrying on.
SMILES,PABP FP inh,MT1-MMP act inh,MT1-MMP act inh RFP,eIF4H FP inh,Rce1 inhib,CSC inhib,Yeast UUG start,Env fusion inh
CC(C)N1CCC(N2CCN(CCCn3cccn3)CC2CCO)CC1 (configuration not stated),2,2,8,13,i,-17,-32,-2
NC(=O)Cn1nc(-c2ccccc2)nc1-c1ccccc1,·,0,-4,·,i,1,·,8
CCC(=O)Oc1ccc2c(C)cc(=O)oc2c1C(=O)CC,9,2,4,-7,i,-4,-19,4
COc1ccc(C(=O)Oc2ccc(/C=N/NC(=O)c3cccnc3)cc2OC)cc1,·,4,2,·,·,-5,·,-13
O=C1Nc2ccccc2C1Cc1ccccc1 (configuration not stated),12,0,-3,5,i,-13,·,1
COc1cccc(/C=C2\N=C(SC)SC2=O)c1OC,0,-4,6,-2,i,3,-17,-39
COc1cc2cccc(OC)c(=O)c2c(OC)c1OC,8,5,6,-10,i,-3,-3,·
CCN(C[C@H]1N[C@@](Cc2ccccc2)(C(=O)OC)[C@H]2C(=O)N(C)C(=O)[C@@H]12)C(=O)Nc1ccc(F)cc1,·,1,7,·,·,·,-7,-104
CCOC(=O)c1ccc(CNC(=O)Cn2nnc(-c3ccccc3)n2)o1,9,-1,0,-13,i,-2,·,2
COc1ccc(CS(=O)c2nc(C)cc(C)c2S(C)(=O)=O)cc1 (configuration not stated),9,4,6,0,i,3,6,6
COc1cccc(C2C(C(=O)Nc3cccnc3)=C(C)Nc3nnnn32)c1OC (configuration not stated),-4,3,3,-6,i,-5,-13,4
COc1ccccc1N1CCN(C2CCCN(C(=O)c3cc(C)oc3C)C2)CC1 (configuration not stated),9,-2,4,2,i,·,-1,13
CC(=O)N1CCN(C(=O)c2ccc(S(=O)(=O)Nc3cccc(C(F)(F)F)c3)cc2)CC1,·,-5,-10,·,i,-2,·,4
COc1ccccc1C/C(N)=N/OC(=O)COc1ccc(C)cc1C,·,0,1,·,i,7,-9,·
CC1=C(O)C(=O)OC1c1c(Cl)cccc1Cl (configuration not stated),-10,-1,1,2,i,-7,-9,5
O=C(NC(=S)Nc1ccc(N2CCOCC2)cc1)c1ccc(Cl)cc1,2,8,-5,-1,i,-7,·,-20
CNC(C)C#Cc1ccc2c(=O)c3ccccc3oc2c1 (configuration not stated),·,3,7,·,i,13,-19,-73
O=C(O)c1ccc(C(=O)c2ccc3c(c2)C(=O)N(Cc2ccco2)C3=O)cc1,32,5,4,21,i,-3,0,·
Cc1nc2scc(C)n2c(=O)c1S(=O)(=O)NCC1CCN(Cc2ccc(F)cc2)CC1,5,2,0,-4,i,66,-1,5
O=c1oc(-c2cccc(S(=O)(=O)N3CCOCC3)c2)nc2ccccc12,8,-3,3,2,i,·,·,·

# A draw from above in order of SMILES length, lowest first.
SMILES,PABP FP inh,MT1-MMP act inh,MT1-MMP act inh RFP,eIF4H FP inh,Rce1 inhib,CSC inhib,Yeast UUG start,Env fusion inh
CCOC(=O)c1ccc(CNC(=O)Cn2nnc(-c3ccccc3)n2)o1,9,-1,0,-13,i,-2,·,2
CC(C)[C@H](NC(=O)c1ccco1)C(=O)NC12CC3CC(CC(C3)C1)C2,3,-1,-1,-1,i,20,·,58*
CCN(C[C@H]1N[C@@](Cc2ccccc2)(C(=O)OC)[C@H]2C(=O)N(C)C(=O)[C@@H]12)C(=O)Nc1ccc(F)cc1,·,1,7,·,·,·,-7,-104

# The list goes on:
SMILES,PABP FP inh,MT1-MMP act inh,MT1-MMP act inh RFP,eIF4H FP inh,Rce1 inhib,CSC inhib,Yeast UUG start,Env fusion inh
O=C(Nc1ccc(F)cc1)c1cccc(N2C(=O)C3C4C=CC(C5CC45)C3C2=O)c1 (configuration not stated),-4,-1,-12,0,i,1,-6,-1
O=S(=O)(NCCc1ccccc1F)c1cccc(S(=O)(=O)N2CCOCC2)c1,41,0,-4,0,i,·,10,10
CCn1c(CNC(=O)c2ccccc2Cl)cc2ccccc21,0,0,-6,-4,i,-9,-21,-23
CC(=O)c1cccc(NC(=O)CN2C(=O)C3C4C=CC(C4)C3C2=O)c1 (configuration not stated),1,7,9,4,i,-11,5,·
CC[C@H](C)C1NC(=O)[C@H](CC(=O)O)NC(=O)c2cc([N+](=O)[O-])cc(I)c2NCCC(C(N)=O)NC1=O (some centres not stated),10,2,0,9,i,-4,12,12
CCc1c(C)nc(SCC(=O)NNC(=O)c2ccco2)[nH]c1=O,1,0,3,2,i,1,-13,2
CCOCCCNC(=O)c1cc2c(=O)n(CC)c3ccccc3c2s1,18,3,-7,1,i,18,-13,-28
C=CCn1c(=O)n(C(=O)OCC)c2cc(Br)ccc21,8,1,-3,-5,i,·,·,20
N/C(Cc1ccc(Cl)cc1Cl)=N\OC(=O)c1ccccc1,-4,1,1,1,i,-14,·,-4
COc1ccccc1C(=O)NC(=O)COC(=O)C1CC1C (configuration not stated),·,0,2,·,i,9,-8,16
O=C(CCCn1c(=S)[nH]c2cc3c(cc2c1=O)OCO3)N1CCN(c2ncccn2)CC1,-1,5,-1,3,i,-13,-21,19
Cc1csc(SC(C)C(=O)Nc2ccccc2C)n1 (configuration not stated),·,0,3,·,·,-21,-12,·
CC1=NN(c2ccccc2)C(=O)/C1=C/c1cn(C)c2ccccc12,6,3,2,4,i,6,·,17
COc1ccc(C(C)NC(=O)c2ccc(Br)cc2)cc1OC (configuration not stated),12,-9,-5,-3,i,-18,1,·
Cc1ccc(Cn2nnc3c(=O)n(CC(=O)N4CCCCC4)cnc32)cc1,-7,4,2,-3,i,-3,·,·
COC(=O)c1cccc(NC(=O)CC2C(=O)NCCN2C(=O)Nc2ccccc2)c1 (configuration not stated),0,0,3,6,i,7,-9,-6
Cc1ccc2nc(-c3ccc(NC(=O)C(C)Sc4nncs4)cc3)sc2c1 (configuration not stated),·,-6,-22,·,i,63,-14,-226
CCc1sc(C(=O)NNC(=O)CNC(=O)c2ccccc2F)cc1C,·,-4,-2,·,·,-3,-14,·
Cc1cc(NC(=O)c2ccc([N+](=O)[O-])cc2Cl)no1,-4,5,2,1,i,-8,-13,-9
COc1ccc(-c2ccc(-c3cc(=O)oc4cc(OC)c(OC)c(OC)c34)cc2)cc1,·,2,-8,·,·,·,-3,4
Cc1ccc(Cl)cc1N1CCN(C(=O)Cn2ncn3cccc3c2=O)CC1,0,-7,-10,0,i,10,0,27
CCCC[C@@H]1CNC(=S)N1CCc1cccc(F)c1,5,3,-2,-11,i,-16,-22,28
Cc1cccc(/C(N)=N/OC(=O)CCc2ccccc2)c1,-6,2,1,7,·,15,-13,·
Cc1ccc(C(CC(=O)N2CCCC2)c2ccccc2)c(O)c1 (configuration not stated),3,-1,-2,-4,i,-1,-1,2
O=C(CSc1ccccn1)N/N=C/c1c[nH]c2ccccc12,-1,2,-6,-4,i,4,·,-5
COc1ccc(C(=O)Nn2cc3c(c2-c2ccccc2)c(=O)n(C)c(=O)n3C)cc1,-8,2,-3,-6,i,-4,2,30
CCOc1ccc(C(=O)NCC(=O)N2CCc3ccccc3C2)cc1OCC,-20,-2,-2,-9,i,13,·,2
CC(CO)NS(=O)(=O)c1cccc(Cl)c1F (configuration not stated),·,2,1,·,·,·,-22,7
COc1ccc(/C=C(\NC(=O)c2ccc(C)cc2)C(=O)Nc2c(C)n(C)n(-c3ccccc3)c2=O)cc1,0,5,2,15,i,-14,10,-8
COc1ccccc1/C=c1\sc2nc(-c3ccccc3OC)nn2c1=O,4,0,-4,-10,·,·,-13,-30
CC(=O)N1CCN(S(=O)(=O)c2cccc(C(=O)Nc3ccc4c(c3)CCC4)c2)CC1,4,6,0,-5,i,·,8,-26
CC1Cc2ccccc2N1C(=O)Cn1cc([N+](=O)[O-])ccc1=O (configuration not stated),·,-1,2,·,·,-17,·,12
C/C=C/C=C\C(=O)Nc1cccc(C2=NOC3(C2)C[C@H](C(N)=O)N(C(=O)CC#N)C3)c1 (some centres not stated),20,-5,4,17,i,-7,0,13
Cc1ccc(NC(=O)CSc2nc(=O)n3cc(C)ccc3n2)c(C)c1,·,4,2,·,i,-6,-13,2
Cc1c(Cl)cccc1NC(=O)c1cccc(NC(=O)CCC(=O)O)c1,6,1,4,-4,i,-13,1,·
COC(=O)[C@H](CC(C)C)NC(=O)Nc1ccccc1F,6,-1,1,0,i,-27,·,-12
Cc1ccc(-n2cccn2)cc1,-8,4,4,-4,i,-18,·,-3

# Complete entries, quoted from the list. Values in the order: PABP FP inh | MT1-MMP act inh | MT1-MMP act inh RFP | eIF4H FP inh | Rce1 inhib | CSC inhib | Yeast UUG start | Env fusion inh
# Entry for CCOc1ccc(C(=O)NCC(=O)N2CCc3ccccc3C2)cc1OCC = -20 | -2 | -2 | -9 | i | 13 | · | 2
# Entry for Cc1ccc(NC(=O)CSc2nc(=O)n3cc(C)ccc3n2)c(C)c1 = · | 4 | 2 | · | i | -6 | -13 | 2
# Entry for COc1ccccc1/C=c1\sc2nc(-c3ccccc3OC)nn2c1=O = 4 | 0 | -4 | -10 | · | · | -13 | -30

# Screens deposited in PubChem BioAssay by several laboratories.

# Not all compounds are listed; count on the stated rates, not on these rows.
